KCNQ2 pot – potentiators of rat KCNQ2 potassium channel. B-score at 10 µM. Potassium voltage-gated channel subfamily KQT member 2 (Rattus norvegicus), O88943. CHO-K1 KCNQ2, FluxOR thallium flux fluorescence; active compounds read high. AID 2239, 2010. 310,000 compounds, 0.54% hits;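 active = fluorescence ratio B-score at least 3 SD of library B-scores, with initial fluorescence B-score within 3 SD, cut at about 5.3 in these data; same plate scores as AID 2156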;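 note: B-score of peak minus minimum over baseline fluorescence ratio after K+ and Tl+ stimulus; positive B-score means potentiation of KCNQ2 with more thallium influx and brighter signal; only the inactives scoring about 0 or higher are listed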
Target sequence (O88943 whole entry, looked up): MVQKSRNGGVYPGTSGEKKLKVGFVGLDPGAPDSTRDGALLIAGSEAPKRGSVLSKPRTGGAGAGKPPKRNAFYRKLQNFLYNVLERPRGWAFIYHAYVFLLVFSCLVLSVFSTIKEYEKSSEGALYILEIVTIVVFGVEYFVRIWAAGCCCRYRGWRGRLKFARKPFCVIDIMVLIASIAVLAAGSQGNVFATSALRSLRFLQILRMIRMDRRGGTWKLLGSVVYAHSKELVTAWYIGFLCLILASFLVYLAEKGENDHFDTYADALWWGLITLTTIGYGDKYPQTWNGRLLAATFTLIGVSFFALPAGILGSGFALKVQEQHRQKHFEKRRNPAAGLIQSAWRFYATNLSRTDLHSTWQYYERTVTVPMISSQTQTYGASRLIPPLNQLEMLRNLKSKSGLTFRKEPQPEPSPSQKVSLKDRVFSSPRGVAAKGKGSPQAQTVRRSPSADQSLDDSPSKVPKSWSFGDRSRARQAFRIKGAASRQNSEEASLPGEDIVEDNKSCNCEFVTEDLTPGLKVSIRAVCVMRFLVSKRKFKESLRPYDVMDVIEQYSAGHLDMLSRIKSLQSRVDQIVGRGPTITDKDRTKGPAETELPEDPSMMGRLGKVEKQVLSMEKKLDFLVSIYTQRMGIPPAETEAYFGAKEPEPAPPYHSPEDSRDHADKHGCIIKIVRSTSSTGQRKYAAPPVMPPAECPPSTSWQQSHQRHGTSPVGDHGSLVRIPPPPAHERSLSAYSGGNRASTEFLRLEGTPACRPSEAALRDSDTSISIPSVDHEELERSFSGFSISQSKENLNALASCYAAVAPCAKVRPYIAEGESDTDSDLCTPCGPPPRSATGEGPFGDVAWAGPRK
KCNQ2 pot baseline – further read-out of KCNQ2 pot, marked with its call; B-score; compound at 10 µM; measured here: initial fluorescence intensity artifact check;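 brightness before thallium and not channel activity; 0 = typical well and far values either way flag optical interference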
* = called active by the depositor.

SMILES	KCNQ2 pot	KCNQ2 pot baseline
O=C(NC(=S)N1CCCC(C(F)(F)F)C1)c1ccc(F)cc1 (stereo unspecified)	4.26	-0.19
Cc1c(CNCCc2ccc(Cl)cc2)c(C(=O)O)c(C)n1-c1ccccc1	5.09	1.97
COc1ccc(C/C(N)=N/OC(=O)c2ccc(Cl)cc2)cc1	1.99	-1.01
CCc1ccc(C(=O)NNC(=O)c2ccc3c(=O)n4c(nc3c2)CCC4)cc1	0.82	0.17
Cc1sc2nc(CN3CCOCC3)nc(Cl)c2c1C	0.89	0.03
Cc1cccc(CSc2nc3[nH]ncc3c(=O)[nH]2)c1	0.48	-0.01
CN(C(=O)c1ccco1)c1nc(-c2ccc(F)cc2)cs1	1.82	0.01
CC1(C)CC(=O)c2cc3c(nc2C1)CC(C)(C)CC3=O	0.67	-1.07
O=C(OCCN1CCOCC1)C(c1ccccc1)c1ccccc1	0.57	0.22
CC(=O)C1=C(C)OC(N)=C(C#N)C1c1cccc2ccccc12 (stereo unspecified)	0.02	0
CSC1=NC(=O)/C(=C\c2cccc3ccccc23)S1	0.51	-0.1
N/C(=N\OC(=O)Cc1ccccc1[N+](=O)[O-])c1cccc(Br)c1	0.74	-0.58
CCN(CCCNC(=O)c1ccc(N2CCCC2=O)cc1)c1cccc(C)c1	2.5	-0.14
CN(C)/C=N/c1ncc(C(=O)c2ccc(Cl)cc2)s1	1.04	-0.02
COc1ccc(NC(=O)/C(C#N)=C/c2ccc(OCc3ccccc3F)cc2)cc1	0.95	0.04
CC(=O)c1ccc(NS(=O)(=O)c2c(C)cc(C)cc2C)cc1	0.81	-1.76
CCOC(=O)C(=O)N1CCN(c2nc(-c3ccc(Cl)cc3)cs2)CC1	0.83	0.34
COc1ccc2c(c1)NC(=O)CC(c1ccccc1)=N2	0.41	0.02
O=C(CSc1ccc2nnc(-c3ccncc3)n2n1)Nc1ccc2c(c1)OCO2	0.68	0.22
CCOC(=O)c1cnc(SCC(=O)N2CCOCC2)nc1N	0.29	-2.15
CC(C)c1ccc(C(=O)NC(=S)NCc2cccnc2)cc1	3.18	-1.25
O=C(COc1ccccc1Cl)Nc1ccc(CN2CCOCC2)cc1	1.3	0.7
C=CCC(=O)N1CCCC(C(=O)c2ccc(Cl)cc2)C1 (stereo unspecified)	0.01	-1.27
Cc1ccc(Nc2cc(C)nc3ncnn23)c(Cl)c1	0.84	-0.56
O=C(CNC(=O)Cc1ccc(Cl)cc1)NCc1ccco1	2.1	-0.32
CCOc1c(Cl)cc(CNCC(C)C)cc1Cl	1.78	-0.62
CCOC(=O)C1CCCN(c2c(N3CCC(N4CCCCC4)CC3)c(=O)c2=O)C1 (stereo unspecified)	0.33	1.51
CCCCN=C1C([N+](=O)[O-])=CC=C2C1=NC1(CCCCC1)N2O	0.83	0.73
O=C(Cc1ncc(C(F)(F)F)cc1Cl)NCCc1ccccc1	0.96	-0.46
C/C(=N\NC(=O)CSc1nc(C)cc(C)n1)c1cccc([N+](=O)[O-])c1	0.56	-0.85
COc1ccc(-n2c(SCC(=O)NCCC(C)C)nc3ccsc3c2=O)cc1	1.98	-2.53
Cc1ccc(-c2ccc(SCC(=O)Nc3nonc3C)nn2)cc1	2.32	1.11
CN1CCC(=NNC(=O)COc2ccc(Cl)cc2)CC1	1.26	0.02
CCSc1nc2ccccc2n1CC(=O)O	1.92	-0.96
CCCn1c(SCC(=O)N(CC)CC)nnc1-c1ccncc1	1.14	0.86
OCC1(CCOc2ccccc2)CCN(Cc2cc(Cl)ccc2O)CC1	1.2	0.68
Cc1ccc(NC(=S)NCc2ccc(F)cc2)c(C)c1	5.52*	4.18*
O=C(CSc1nc(-c2ccco2)cc(C(F)(F)F)n1)Nc1cccnc1	2.02	0.79
CCOc1c2ccc(C(=O)NCCCCc3ccccc3)cc2nn1C	0.22	1.98
Cc1cccc(C(C)(C)C)c1OCCOCCN1CCCC1	0.21	-1.18

Sorted by formula weight (ascending): three of the compounds above
SMILES	KCNQ2 pot	KCNQ2 pot baseline
CCOc1c(Cl)cc(CNCC(C)C)cc1Cl	1.78	-0.62
Cc1ccc(-c2ccc(SCC(=O)Nc3nonc3C)nn2)cc1	2.32	1.11
O=C(Cc1ncc(C(F)(F)F)cc1Cl)NCCc1ccccc1	0.96	-0.46

(continued)
SMILES	KCNQ2 pot	KCNQ2 pot baseline
O=C(CCNc1ccccc1)c1ccc2c(c1)OCO2	0.94	1.69
Cc1nc2ncccn2c1-c1csc(NCc2ccco2)n1	1.6	-0.2
C/C=C(/C)C(=O)Nc1cccc(C2=NOC3(C2)C[C@@H](C(N)=O)N(C(=O)CC(c2ccccc2)c2ccccc2)C3)c1 (stereo partly specified)	1.45	-0.15
CCCC(=O)Nc1ccc(NC(=O)c2ccccn2)cn1	0.11	0.06
CN(C)S(=O)(=O)N1CCC(Oc2cccc(C(=O)NCCCC3CCCC3)c2)CC1	0.27	-0.84
O=C1C=C(Nc2ccccc2C(=O)O)c2ccccc2C1=O	1.44	-0.97
CCS(=O)(=O)c1ccc2oc(SCC(=O)NC34CC5CC(CC(C5)C3)C4)nc2c1	1.96	-1.2
CCc1nnc(SCC(=O)Nc2ccc(NC(C)=O)cc2)n1-n1cccc1	0.6	-0.44
COc1ccc(C(C)=O)cc1COC(=O)c1cccnc1Cl	0.26	0.46
Cc1nc2cc(-c3ccccc3)sc2c(=O)n1N	1.17	0.08
O=C1c2ccccc2C(=O)N1CCCc1nc(-c2ccccc2)no1	0.01	-2.27
CCOc1ccc(NS(=O)(=O)c2ccc3[nH]c(=O)[nH]c3c2)cc1	0.41	-1.42
CC1(C)SC[C@H](C(=O)Nc2cccc(Cl)c2)N1C=O	1.13	0.03
O=C1NCCN1Cc1ccc(F)cc1	1.05	1.85
CCOCCOC(=O)C1=C(C)NC(=O)NC1c1ccc2c(c1)OCO2 (stereo unspecified)	0.66	0
Fc1ccc(-c2cn3cc(C(F)(F)F)cc(Cl)c3n2)cc1	0.42	0.23
CCOC(=O)c1c(NC(=O)COC(=O)CCOc2ccc(OCC)cc2)sc(C(=O)N(C)C)c1C	0.14	0.85
CC1CCN(Cc2c(C(=O)N/N=C/c3ccccc3O)nnn2-c2nonc2N)CC1	0.12	-0.01
Cn1cc(C(=O)NC2CCCCCC2)c(=O)c2cc(S(=O)(=O)N3CCCC3)ccc21	1.79	-0.22
CC1Cc2ccccc2N1S(=O)(=O)c1cnc(Cl)c(Br)c1 (stereo unspecified)	0.1	0.03

Filtered by structure: the entries above containing a nitro group on carbon (3)
SMILES	KCNQ2 pot	KCNQ2 pot baseline
N/C(=N\OC(=O)Cc1ccccc1[N+](=O)[O-])c1cccc(Br)c1	0.74	-0.58
CCCCN=C1C([N+](=O)[O-])=CC=C2C1=NC1(CCCCC1)N2O	0.83	0.73
C/C(=N\NC(=O)CSc1nc(C)cc(C)n1)c1cccc([N+](=O)[O-])c1	0.56	-0.85

Entries from the list above that contain an NH in an aromatic ring, in the order listed:
SMILES	KCNQ2 pot	KCNQ2 pot baseline
Cc1cccc(CSc2nc3[nH]ncc3c(=O)[nH]2)c1	0.48	-0.01
CCOc1ccc(NS(=O)(=O)c2ccc3[nH]c(=O)[nH]c3c2)cc1	0.41	-1.42

Single records, as listed above. Order of screens: KCNQ2 pot | KCNQ2 pot baseline
CC1CCN(Cc2c(C(=O)N/N=C/c3ccccc3O)nnn2-c2nonc2N)CC1 is entered as 0.12 | -0.01
CCOCCOC(=O)C1=C(C)NC(=O)NC1c1ccc2c(c1)OCO2 (stereo unspecified) is entered as 0.66 | 0
Cn1cc(C(=O)NC2CCCCCC2)c(=O)c2cc(S(=O)(=O)N3CCCC3)ccc21 is entered as 1.79 | -0.22

(list continues)
SMILES	KCNQ2 pot	KCNQ2 pot baseline
CCN1CCN(C(=O)CN(c2cccc(Br)c2)S(=O)(=O)c2ccccc2)CC1	0.35	0.51
Cc1ccccc1-n1c(=O)c2ccccc2n2nnnc12	0.55	-0.02
CCOC(=O)C1CCN(C(=O)CCN2C(=O)C3C4C=CC(C4)C3C2=O)CC1 (stereo unspecified)	0.93	-0.05
O=C(NC1CCCC1)C(c1ccsc1)N(CCc1ccccc1)C(=O)Cc1cccs1 (stereo unspecified)	0.01	1.83
Cc1ccc(OC(=O)c2cccc([N+](=O)[O-])c2)c(-n2nc3ccccc3n2)c1	0.22	-1.5
Cc1nnc(N2C(=O)C(=O)/C(=C(/O)c3ccc4c(c3)OCCO4)C2c2ccc(F)cc2)s1 (stereo unspecified)	0.07	1.04
O=C1OCC/C1=C\c1ccccc1	0.05	1.3
CSc1nc(=S)n(Cc2ccccc2)c(C)c1C(C)=O	0.92	-1.98
CCS(=O)(=O)N1CCC(C(=O)NCc2ccccn2)CC1	0.11	2.09
CC(=O)c1ccc(Sc2ccccn2)c([N+](=O)[O-])c1	0.44	0.35
Cc1cc(=O)n2nc(N3CCC(C(=O)NCCc4ccc(Cl)cc4)CC3)sc2n1	0.01	-1.77
CC(C)Cc1n[nH]c(=O)c2c1nnn2Cc1ccccc1F	0.04	1.11
NCCCC[C@H]1CNC(=S)N1CC1CCCCC1	0.05	-1.71
Cc1oc(-c2ccccc2)[n+]([O-])c1C	1.17	1.85
Fc1ccc(Nc2ccnc(Nc3ccc(F)cc3)n2)cc1	0.1	0.08
CN(C)C(CNC(=O)c1cccc(S(=O)(=O)N(C)C)c1)c1ccccc1 (stereo unspecified)	0.13	-0.62
O=C(CN1CCCCCC1)Nc1cccc(Br)c1	1.14	1.01
O=C(CCNS(=O)(=O)c1c(Cl)cccc1Cl)OCC(=O)c1ccccc1F	0.74	-0.05
COC(=O)NC1(C(F)(F)F)C(=O)Nc2c1c(=O)n(C)c(=O)n2C (stereo unspecified)	0.09	0.03
NS(=O)(=O)c1ccc(NC(=O)COC(=O)c2ccc(Cl)cc2[N+](=O)[O-])cc1	0.06	-0.87
CC1CCCN(CCCNC(=O)c2nn(C)c3c2CSc2ccccc2-3)C1 (stereo unspecified)	0.05	-1.05
COC(=O)C(CCSC)NC(=O)c1cc2c(n(-c3ccc(C)cc3)c1=O)CCCC2=O (stereo unspecified)	0.04	0.59
CN(CC(=O)Nc1ccc(N2CCOCC2)cc1)C(=O)CCNC(=O)c1ccccc1Cl	0.61	-0.02
Cc1c(C(=O)Nc2nnc(C3CC3)s2)oc2c(Cl)cccc12	0.03	-1.03
CC(C)C(=O)Nc1nnc(Cc2ccccc2)s1	1.1	-1.66
CC(=O)/C(C#N)=C1\NC(=O)C(Cc2ccccc2C)S1 (stereo unspecified)	1.07	0.95
Cc1cc(NS(=O)(=O)c2ccc(NC(=O)c3cc4ccccc4o3)cc2)nc(C)n1	0.52	0.22
CCCCC(=O)N(CCOC)c1nnc(-c2cccnc2)s1	0.65	-0.61
CCn1c(CN2CCOCC2)nnc1SCC(=O)Nc1ccccc1C	0.14	0.16
C=CCOc1c2ccc(C(=O)NCc3ccccc3OC)cc2nn1C	0.9	0.45
COC(=O)CN1C(=O)N/C(=C/c2cc3c(cc2OC)OCO3)C1=O	0.53	0.45
CCOc1ccc(-n2c(=O)c3ccccc3c3ccccc3c2=O)cc1	0.92	1.28
COc1ccc(-n2nc([N+](=O)[O-])c(=NCc3cccnc3)n2O)cc1	0.48	1.08
COc1ccc(CNC(=O)COC(=O)/C=C/c2cccc(Br)c2)cc1	0.97	0.66
COc1ccc(Cc2nnc(SCC(=O)N(C)CC(=O)Nc3ccc(C)cc3)o2)cc1	0.73	1.39
CCOC(=O)C1=C(COC(=O)/C=C/c2ccc(SC)cc2)NC(=O)NC1C (stereo unspecified)	0.92	0.92
O=C(NCc1cccnc1)c1cccc(-c2cc3ccccc3oc2=O)c1	0.1	0
CC(C)(C)NC(=O)C(=O)NNC(=O)c1ccco1	0.07	-0.18
CC(=O)n1cc(Nc2ccccc2C(=O)O)c2ccccc21	0.06	-1.96
CC(=O)N1CCc2c(sc(NC(=O)Cc3ccc(F)cc3)c2C#N)C1	0.01	-1.1
COc1ccc(C)cc1NC(=O)Nc1cccc(C(=O)O)c1	0.45	-1.27
COc1ccc(NC(=S)N(Cc2ccc(C(=O)O)cc2)Cc2ccc(OC)c(OC)c2)cc1	1.08	-0.3
Cc1csc(NC(=O)COCC(=O)O)c1-c1nc2ccccc2s1	1.88	-1.21
COc1ccc(C2=[N+]([O-])C(C)(C)N(O)C2C)cc1 (stereo unspecified)	0.46	-0.34
COc1cc(OC)cc(C(=O)N[C@H](C(=O)Nc2nc3ccc(S(C)(=O)=O)cc3s2)C(C)C)c1	0.79	1.25
CN1C(=O)/C(=C/c2cn(CC(=O)NCc3ccco3)c3ccccc23)NC1=S	1.52	-0.54
O=C(CC12CC3CC(CC(C3)C1)C2)N1CCCC1	0.48	-0.12
O=C(CSc1nnnn1C1CCCCC1)Nc1ccccc1N1CCOCC1	0.91	-1.07
Cc1ccc(CNC(=O)CN(C)S(=O)(=O)c2cccc3nsnc23)cc1	1.02	-0.04
Cc1ccccc1CSc1nnc(CCCCCNC(=O)OC(C)(C)C)o1	0.29	-1.28
Cc1nc(Cl)cc(N/N=C/c2ccc(O)cc2)n1	2.02	-0.19
O=C(NCCN1C(=O)S/C(=C\c2ccc(OC(F)F)cc2)C1=O)C1=COCCO1	0.67	-1.19
COc1cc(Br)c(CN2C(=O)NC3(CCCCCC3)C2=O)cc1OC	2.28	-1
Cc1ccc(O)c(C(=O)c2coc(=N)c(C(=O)NC(C)C)c2)c1	0.01	-1.01
Cc1ccc(S(=O)(=O)NNC(=S)NCCc2ccccc2)cc1	0.73	-0.33
O=C(CN(Cc1ccccc1Cl)S(=O)(=O)c1ccc(Cl)cc1)N/N=C/c1ccc(C(=O)O)cc1	1.02	-0.21
COC(=O)C1CCN(C(=O)C2CCC(=O)N(CCCc3ccccc3)C2)CC1 (stereo unspecified)	0.84	-0.61
CCOC(=O)c1ccc(CNC(=O)CCC(=O)O)cc1	1.39	-1.94
CC(CNS(=O)(=O)c1ccccc1)Sc1ncccn1 (stereo unspecified)	0.74	1.2
Cn1c(O)c(C=Nc2ccc(N3CCOCC3)cc2)c(=O)n(C)c1=S	1.75	0.76
Cc1ccc2cc(CN(CCN3CCCC3)C(=O)Nc3ccccc3)c(=O)[nH]c2c1C	1.41	0.4

Not all compounds are listed; the hit share may differ from the screen's.
